Assay outcomes: PubChem BioAssay, National Center for Advancing Translational Sciences (NCATS)
TRPML1 agonist: qHTS for Agonists of the Human Mucolipin Transient Receptor Potential 1 (TRPML1); Mucolipin-1 (Homo sapiens), Q9GZU1; TRPML1-expressing cells, Ca2+ dye fluorescence, FDSS; host cell line not named in the record; reference of the full effect not given here; activation, % (concentration not given with the values); hit rate 0.12% among 410,000; in the data active = activation above about 50%; inconclusive = about 30% to 50%; inactive = below about 30%; note: 0% is about no effect; the text of the record puts the active cut at 80%
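Tet-induced TRPML1-DL cells, 1,500 per well, cultured overnight, were loaded with a no-wash Ca2+ dye for 45–90 min. Calcium fluorescence was recorded on the FDSS for 110 s after compound addition, before the EC80 agonist (4 uM 54-4) was added.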
D2 agonist: Beta-Arrestin HTS for Positive Allosteric Modulators of the Human D2 Dopamine Receptor: Agonists; D(2) dopamine receptor (Homo sapiens), P14416; AID 624465, 2012; DiscoveRx PathHunter D2 beta-arrestin, luminescence, 90 min; 100% = 57 uM dopamine signal; hit rate 0.084% among 360,000; activation, % (no concentration beside the values); in the data active = activation above about 40%; inconclusive = about 15% to 40%; inactive = below about 15%; note: compound concentration not given in the record; the text of the record calls up to 30% inactive
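DiscoveRx PathHunter D2 beta-arrestin cells (2,100/well) attached overnight, then compound-stimulated 90 min at 37 C in HBSS/10 mM HEPES/0.1% Tween-20 buffer; beta-galactosidase complementation read by luminescence after 1 h at ambient temperature. Dopamine 57 uM final (EC100) as control.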
Six1-Eya2 blk: qHTS Assay for Inhibitors of the Six1/Eya2 Interaction. Homeobox protein SIX1 (Homo sapiens) + Protein phosphatase EYA2 (Homo sapiens), …. AlphaScreen GST-Six1/His-Eya2 binding, biochemical; hits give low values; control for the full effect not named in the record. activity change, % (no concentration beside the values). hit rate 0.56% among 360,000; in the data active = activity change below about -65%; inconclusive = about -30% to -65%; inactive = above about -30%; note: % is set by controls: 0 for no effect and ±100 for the full control effect; compound concentration not given in the record
Target sequence (O00167 whole entry, looked up): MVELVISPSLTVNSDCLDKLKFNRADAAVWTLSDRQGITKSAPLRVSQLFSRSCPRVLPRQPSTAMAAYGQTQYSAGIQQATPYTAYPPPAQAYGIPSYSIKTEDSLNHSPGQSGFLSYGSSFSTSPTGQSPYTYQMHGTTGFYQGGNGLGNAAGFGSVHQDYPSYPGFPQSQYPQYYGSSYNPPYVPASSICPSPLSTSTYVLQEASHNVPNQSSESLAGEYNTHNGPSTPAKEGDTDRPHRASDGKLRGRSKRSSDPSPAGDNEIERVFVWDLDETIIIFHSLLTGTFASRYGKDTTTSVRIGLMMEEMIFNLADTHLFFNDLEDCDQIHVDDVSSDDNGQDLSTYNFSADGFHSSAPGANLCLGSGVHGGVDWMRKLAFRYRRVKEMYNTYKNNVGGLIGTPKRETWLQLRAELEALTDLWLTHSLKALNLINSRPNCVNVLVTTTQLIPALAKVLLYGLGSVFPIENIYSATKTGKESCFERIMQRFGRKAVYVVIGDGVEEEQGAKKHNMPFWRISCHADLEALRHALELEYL
Target sequence (Q15475 whole entry, looked up): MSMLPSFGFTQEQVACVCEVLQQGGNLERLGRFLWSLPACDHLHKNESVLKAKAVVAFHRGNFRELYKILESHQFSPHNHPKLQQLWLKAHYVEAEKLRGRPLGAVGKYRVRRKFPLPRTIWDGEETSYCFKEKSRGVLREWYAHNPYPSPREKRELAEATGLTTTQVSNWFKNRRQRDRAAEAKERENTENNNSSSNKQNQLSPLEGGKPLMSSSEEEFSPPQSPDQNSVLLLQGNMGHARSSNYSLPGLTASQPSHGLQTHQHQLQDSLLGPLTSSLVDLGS
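Six1/Eya2 binding was read as AlphaScreen signal after compounds were pinned into GST-Six1 plus His-tagged Eya2 (5X stock 250/500 nM) in pH 8.0 Tris/NaCl/TCEP buffer, beads added, then incubated 1 h, 37 C, dark.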
PINK1 expr mod: A Quantitative High throughput Screen to Identify Chemical Modulators of PINK1 Expression; Potency, µM (doses to about 76.6 µM), for the others: at the highest dose activation (PINK1 increase), most hits filed as activators; hit rate 0.2% among 410,000; PINK1 immunofluorescence, high-content cytometry, 24 h; active = well fitted activation curve with a large enough effect; inconclusive = small, poorly fitted or top-dose-only effect; inactive = flat fitted curve, though single readings scatter; cell line not stated here;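 note: potency is the fitted concentration of half-maximal effect; % of control where 0% means no effect; nearly all actives have a fitted effect of over 65% in size; a mitochondrial uncoupler was the plate control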
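Measures PINK1 amount and localization on or inside mitochondria by immunofluorescence. Stable cells get compounds at 5 concentrations for 24 hours before fixation and staining; CCCP controls included.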
CtBP-E1A inh: qHTS Assay for Inhibitors of the CtBP/E1A Interaction | CtBP / adenovirus E1A interaction (AlphaScreen) | AlphaScreen GST-E1A/His-CtBP binding, 1536-well; hits give low values; control for the full effect not named in the record | activity change, % (concentration not given with the values) | hit rate 0.49% among 340,000 | AID 651724, 2012; in the data active means activity change below about -65%; inconclusive means about -30% to -65%; inactive means above about -30%; note: % is set by controls: 0 for no effect and ±100 for the full control effect
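Protein mix (5X: 125 nM each GST-E1A, His-CtBP) was incubated with pinned compound 2 h at 37 deg C in dark, in 50 mM Tris pH 8.0 buffer with 300 mM NaCl. Glutathione donor and nickel acceptor beads followed; AlphaScreen signal read after 1 h.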
D2 PAM: Beta-Arrestin HTS for Positive Allosteric Modulators of the Human D2 Dopamine Receptor: Potentiators; AID 624464, 2012; hit rate 0.23% among 360,000; D(2) dopamine receptor (Homo sapiens), P14416; DiscoveRx D2 beta-arrestin cells, luminescence, 90 min; 100% = 57 uM dopamine signal; potentiation, % (concentration not given with the values); active = potentiation of 50% or more; inconclusive = 30% to 50%; inactive = 30% or less;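 note: compound concentration not given in the record; tested on top of an EC20 dose of dopamine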
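D2 cells co-treated with compound plus 50 nM dopamine (EC20) for 90 min at 37 deg C to detect potentiation. Beta-arrestin recruitment was read as enzyme-fragment luminescence after 1 h at ambient temperature. Full response was set by 57 uM dopamine.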
An asterisk follows results filed as active; ? = inconclusive; / = no result given; & = joins results of further samples; [ ] = another dose, or the depositor's remark.

SMILES	TRPML1 agonist	D2 agonist	Six1-Eya2 blk	PINK1 expr mod	CtBP-E1A inh	D2 PAM
CN(C)C1C(=O)c2ccccc2C1=O	-0.2	1.0	1.7	4.1%	-2.9	-10.2
COC(=O)CCCCCNc1ccc(C(=O)OC)cc1N	2.3	-1.2	-3.0	1.1%	-8.0	7.7
COc1ccc(S(=O)(=O)Nc2cc(C)c(O)c(S(=O)(=O)c3ccccc3)c2)cc1	-0.5	2.5	-10.1	36.4%[38.3 µM]	-8.0	8.3
CS(=O)(=O)Nc1nnc(Cc2ccccc2)s1	-0.2	-0.8	2.7	3.3%	9.3	-11.2
CCCOc1ccc(CC(=O)NCc2ccco2)cc1OC	1.2	2.4	-8.0	0.6%	-15.4	3.1
CCCCc1cc(C)c(S(=O)(=O)c2ccccc2C)c(=O)[nH]1	0.8	4.6	5.3	-1.3%	12.7	1.1
CC(=O)Nc1ccc(C(=O)Nc2cccc(-c3cnc4ccccc4n3)c2)cc1	0.7	0.5	-0.5	3.5%	0.8	1.3
COc1ccc(CCNC(=O)COC(=O)c2ccc(C)s2)cc1OC	-0.9	5.1	0.0	2.0%	6.9	-1.7
CCS(=O)(=O)Nc1cc(C(=O)OC)ccc1C(=O)OC	-0.3	-3.7	-2.1	13.8%[38.3 µM]	6.3	-7.0
CCS(=O)(=O)N1CCC(C(=O)NCc2ccccn2)CC1	-0.7	0.4	-2.2	/	4.2	5.1
CCCCCN(C(=O)CCC(=O)OCCOc1cccc(Cl)c1)c1c(N)n(CCCC)c(=O)[nH]c1=O	-0.6	-1.5	1.5	4.4%	4.8	4.6
COc1ccc(C(=O)NCC(c2ccco2)N2CCc3ccccc32)c(OC)c1 (configuration not stated)	2.5	0.8	-20.7	14.0%	-6.4	23.6
O=C1CCCN1CCC12CC3CC(CC(C3)C1)C2	1.0	-1.9	0.4	-3.8%	4.2	-2.8
O=c1cc(-c2ccccc2)nc(/C=C/c2ccccc2)[nH]1	1.5	-3.8	-1.0	15.5%	4.1	-3.2
COc1cc(C2NC(=O)NC(C)=C2C(=O)OCC2CCCCC2)cc(Cl)c1O (configuration not stated)	0.6	4.6	-0.2	2.1%	-6.9	-0.4
CCCN1CCN(CCCNC(=S)Nc2ccc(OC)cc2)CC1	-0.1	2.8	-4.1	-0.5%	-4.3	-7.1
O=C(CN1CCN(c2cccc(Cl)c2)CC1)N1CCCC1	-0.2	-0.2	4.4	4.0%	3.4	-15.9
CCCCC1C2C(=O)N(c3ccccc3)C(=O)C2ON1c1ccccc1 (configuration not stated)	-1.2	-7.4	8.1	1.1%	/	-18.3
CC1CN(C(=O)CSc2nnc(C3CCCCC3)n2N)CC(C)O1 (configuration not stated)	-1.0	1.7	-2.7	3.8%	/	3.0
Cc1ccc(S(=O)(=O)N(C(=O)c2ccncc2)c2ccc3oc4c(c3c2)CCCC4)cc1[N+](=O)[O-]	-0.4	0.3	-23.4	?	-13.5	20.6
CCc1ccc(NC(=O)COc2cccc(-n3cnnn3)c2)cc1	2.1	-1.7	-16.1	0.4%	-2.9	-8.7
COc1ccccc1N1C(=O)CCC1(C#N)c1ccc(Br)cc1 (configuration not stated)	0.8	-0.8	-0.7	1.2%	3.2	9.4
COc1ccc(/C=C(\C#N)C(=O)OCC(=O)N2CC(C)OC(C)C2)cc1 (configuration not stated)	0.3	3.1	-2.5	2.5%	-16.1	-5.0
CCCC(=O)Nc1ccc(C(=O)COC(=O)C2CC2)cc1	0.3	-6.6	5.0	1.6%	/	1.3
CCN1CCN(S(=O)(=O)c2ccc(Cl)c(C(=O)N(C)Cc3ccc(C(C)(C)C)cc3)c2)CC1	0.6	-1.1	-6.9	3.4%	-6.1	-4.7

Just TRPML1 agonist and CtBP-E1A inh, for some of the entries so far:
Structure,TRPML1 agonist,CtBP-E1A inh
COc1cc(C2NC(=O)NC(C)=C2C(=O)OCC2CCCCC2)cc(Cl)c1O (configuration not stated),0.6,-6.9
CCCN1CCN(CCCNC(=S)Nc2ccc(OC)cc2)CC1,-0.1,-4.3

Next part
SMILES	TRPML1 agonist	D2 agonist	Six1-Eya2 blk	PINK1 expr mod	CtBP-E1A inh	D2 PAM
CCC(=O)N1CCN(c2ccc(NC(=O)COc3ccccc3[N+](=O)[O-])cc2)CC1	-0.8	2.2	4.0	6.9%	7.7	-3.5
CC1(C)CC(=O)c2cnc(NC(=O)c3ccco3)nc2C1	-0.4	2.8	11.3	1.8%	13.8	6.5
CN(CCCS(=O)(=O)[O-])c1ccc(/C=C/c2ccc3ccccc3[n+]2C)cc1	0.1	-3.7	5.6	2.4%	/	-9.9
Cc1ccc(N(CCC#N)C(=O)COC(=O)c2cc(C)oc2C)cc1	0.0	-4.7	-2.5	3.3%	-3.3	-23.3
CCCc1[nH]nc2c1C(CCC)C(C#N)=C(N)O2 (configuration not stated)	1.0	-2.0	0.6	-0.7%	1.9	6.3
CC12CCC(=O)N1C(C(=O)Nc1ccc(SC(F)F)cc1)CS2 (configuration not stated)	0.2	4.6	-2.5	2.6%	10.3	-7.6
COCC(C)n1c(C)cc(C(=O)COC(=O)CCc2nc3ccccc3c(=O)[nH]2)c1C (configuration not stated)	-0.4	0.1	-5.9	6.6%	1.7	-4.1
Cc1[nH]c(-c2ccc(F)cc2)cc1C(=O)N1CCN(c2ccccc2)CC1	/	-0.5	-15.3	-0.6%	-3.4	-19.7
O=C(CSc1nc2[nH]c(=O)[nH]c(=O)c2s1)Nc1cccc(F)c1	-0.8	-2.3	-1.6	-0.3%	4.3	-19.5
Cc1nc(=O)c(-c2ccccc2)c(C)n1-c1ccccc1C(=O)O	-0.3	0.9	8.0	-2.9%	-0.8	-10.1
CCCCn1c(N)c(N(CC(C)C)C(=O)C2CCN(C(=O)c3ccc(Cl)cc3)CC2)c(=O)[nH]c1=O	-0.5	-6.6	2.0	0.1%	7.3	-22.5
COc1cc(C(=O)NC(=S)N(CCC#N)Cc2cccnc2)cc(OC)c1OC	1.1	-3.0	-3.7	2.1%	2.7	-17.2
CCN(CC(=O)NCCc1ccccc1)S(=O)(=O)c1ccccc1	0.7	-5.1	4.3	-1.1%	5.4	0.9
CC(C)c1ccc2c(c1)C1(NN=C(c3ccccc3)S1)C(=O)N2 (configuration not stated)	-0.9	-10.7	?	?	-16.9	-27.5
O=C(c1ccc(Cl)c(NC2=NC3CS(=O)(=O)CC3S2)c1)N1CCN(c2ccc(F)cc2)CC1 (configuration not stated)	-0.2	-6.2	-9.2	-0.6%	-6.7	-7.9
N#Cc1ncc(C(F)(F)F)cc1Oc1cccnc1	0.1	4.6	4.2	-1.8%	0.0	0.9
COCCn1cc(C(=S)N2CCCCC2)c2ccccc21	-0.6	-7.9	0.6	-1.6%	-16.3	1.2
N/C(=N\OC(=O)c1ccoc1)c1ccc(Br)cc1	-0.5	?	11.2	2.6%	13.8	1.9
C#CCNC(=O)/C=C/c1ccc(C)cc1	-0.1	-1.8	5.6	1.3%	6.3	-13.1
O=C(COC(=O)CCc1ccccc1)NC1CCS(=O)(=O)C1 (configuration not stated)	0.3	-3.5	-3.3	-0.2%	5.7	-20.4
O=C(NCC(c1ccco1)N1CCN(c2ccccc2F)CC1)OCc1ccccc1 (configuration not stated)	1.1	0.0	-5.3	14.1%	-6.5	-17.4
COc1cc2nnn(-c3ccncc3)c2cc1OC	0.0	-6.2	-12.7	-0.4%	-6.1	-7.9
Cc1cccn2c(=O)c(C(=O)NC3CCCCC3)c(O)nc12	0.3	-2.4	5.4	8.1%	/	-4.1
O=C(COC(=O)c1ccc(OC(F)F)cc1)NCCC1=CCCCC1	0.5	4.3	7.4	-0.8%	-0.3	-4.4
c1ccc(Cc2c(-c3ccco3)nc3c4ccccc4ccn23)cc1	2.8	-7.0	?	4.9%	-20.7	-6.3

(listing goes on)
SMILES	TRPML1 agonist	D2 agonist	Six1-Eya2 blk	PINK1 expr mod	CtBP-E1A inh	D2 PAM
CC(C)Oc1ccc(C(=O)Nc2ccccc2N2CCOCC2)cc1	-1.1	3.6	12.9	1.0%	/	-0.3
Cc1ccc(S(=O)(=O)CCC(=O)OCC(=O)NC(N)=O)cc1	0.1	1.2	3.3	0.2%	3.1	-1.3
COc1ccccc1-c1nc2ccccc2nc1-c1ccccc1OC	1.3	-4.3	-3.5	2.8%	7.5	-18.7
COC(=O)c1ccc(NS(=O)(=O)c2cc3c4c(c2)CCN4C(=O)CC3)cc1	-0.5	0.3	-2.6	0.5%	2.3	-1.7
O=C(c1ccc(CS(=O)(=O)c2ccc(Br)cc2)o1)N1CCN(c2ccc(F)cc2)CC1	-1.6&0.2	3.8	-1.0	2.0%&6.8%	4.7	-6.0
CC(C)C[C@H](N)c1nnc(S(=O)(=O)Cc2cccc(F)c2)o1	0.1	-2.3	0.0	1.6%[38.3 µM]	-2.7	-25.8
OC(CNCCNc1ncccc1C(F)(F)F)COc1ccc(F)cc1 (configuration not stated)	0.3	-4.8	14.6	1.9%	1.3	-16.4
O=C(c1cc(=O)[nH]c2ccccc12)N1CCc2ccccc2C1	-0.8	-5.0	38.8	4.3%	-2.1	-7.7
Cn1c(NC(=O)C[n+]2cc(-c3ccc(Cl)c(Cl)c3)n3c2CCC3)cc(=O)n(C)c1=O	-0.5	-3.4	-11.9	-1.1%	1.5	-28.2
Clc1c(-c2nnc3n2CCCCC3)sc2ccccc12	1.5	-0.2	3.6	-1.3%	1.9	-2.9
Cc1nn(Cc2ccc([N+](=O)[O-])cc2)c(=O)n1-c1cccc(Cl)c1	0.0	5.1	2.3	1.3%	0.8	-2.8
Cc1ccc(NC(=O)CC2(CC(=O)O)CCCC2)cc1	-1.6	-1.5	0.8	0.1%	7.1	-4.0
CS(=O)(=O)N1CCc2cc(C(=O)Nc3ccccc3Br)ccc21	/	1.6	0.6	-0.4%	-0.5	-5.9
CC(=O)c1ccc(S(=O)(=O)N2CCNCC2)cc1	/	-0.2	4.9	1.0%	-1.2	-6.1
Cc1cc(C)n(-c2ccc(Cl)c(Cl)c2)n1	0.4	-2.8	7.3	-2.0%	5.7	0.6
CN(C)c1ccc(CN(C(=O)c2cc3ccccc3oc2=O)C2CCS(=O)(=O)C2)cc1 (configuration not stated)	-1.1	5.3	11.5	0.4%	0.0	-11.8
CCN1C(=O)[C@H]2[C@@H](c3ccc(-c4ccc(Cl)c(Cl)c4)cc3)N[C@@](Cc3ccccc3)(C(=O)OC)[C@H]2C1=O	0.4	-2.7	-4.9	1.9%	-4.0	-6.6
CC(=O)Nc1ccc(/C=N/NC(=O)CNC(=O)c2ccccc2)cc1	-0.7	0.3	-0.3	0.4%	-1.2	-19.0
COCCNc1c2c(nc3c(-c4ccccc4)c(C)nn13)CCC2	2.7	0.1	3.2	-0.4%	-0.9	1.2

Random draw from the library. Share with any hit: about 1.3%.
